# Source: PubChem BioAssay
# GIV-Gai inh – GIV-Galpha-i interaction inhibition | percent of control (FP), % (concentration not given with the values) | Galpha-i3/FITC-GIV peptide fluorescence polarization, 90 min; stronger effect = lower value; scaled: aluminum fluoride 0%, vehicle 100% | AID 1224905 | 210,000 tested, 0.42% active;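 active means replicate mean at 85% of control or lower, very high polarization wells dropped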;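 further: wells of about 15 µL received 100 nL stock; the first replicate is given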
# Target sequence (P08753 whole entry, looked up): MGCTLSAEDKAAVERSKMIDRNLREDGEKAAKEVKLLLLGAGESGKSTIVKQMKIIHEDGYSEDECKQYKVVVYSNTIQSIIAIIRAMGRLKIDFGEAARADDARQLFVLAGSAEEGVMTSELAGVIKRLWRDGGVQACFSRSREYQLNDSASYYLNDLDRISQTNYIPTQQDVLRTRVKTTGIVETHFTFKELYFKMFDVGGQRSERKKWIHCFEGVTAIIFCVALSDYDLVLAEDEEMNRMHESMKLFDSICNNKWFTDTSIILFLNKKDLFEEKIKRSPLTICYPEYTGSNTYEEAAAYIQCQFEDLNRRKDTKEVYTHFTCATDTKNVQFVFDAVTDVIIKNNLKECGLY
# Sa growth 42C – blocks Staphylococcus aureus growth | S. aureus RN4220 growth, OD600, 20 h, 42 °C; stronger effect = lower value | 170,000 tested, 0.53% active | relative growth, % (no concentration beside the values) | AID 720641;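 active means growth at 42 °C up to 50% and 20 or more points under that at 30 °C, or under 10% at both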;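 further: 300 nL library stock went into each well; scaled to the means of positive and negative controls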
# HCMV NEC inh – cytomegalovirus nuclear egress complex inhibition; HTRF UL50-UL53 interaction, normalized percent inhibition; inhibition, % (no concentration beside the values); 190,000 tested, 0.15% active;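 active means both replicates at 50% or more, plus weaker picks with an unusually low signal ratio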;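 further: stock transfer was 100 nL into about 20 µL; 0% = negative control wells and 100% = wells with untagged competitor protein; inactives centre near -12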
# Sa growth 42C second temp – second read-out of Sa growth 42C, no call of its own (marks repeat the call); relative growth, %; measured here: growth at 30 °C;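 optical density after 20 h as mean of two plates; 100% = untreated growth and lower means inhibition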
# * marks the source's active call; other numbers are inactive results; nt = no result given.
SMILES,GIV-Gai inh,Sa growth 42C,Sa growth 42C second temp,HCMV NEC inh
Cc1ccc(-c2ccc(/C=C3/SC(=S)N(C)C3=O)o2)cc1Cl,123,95,84,nt
CCc1nnc(SC(CC)C(=O)NCc2ccc(C)cc2)c2cc3sccc3n12 (stereo unspecified),104,100,96,nt
CN(C(=O)c1ccccc1C(=O)N(C)C1CCS(=O)(=O)C1)C1CCS(=O)(=O)C1 (stereo unspecified),nt,100,89,-7
FC(F)(F)c1cccc2c1[nH]c1nc3ccccc3nc12,102,106,95,nt
CN(C1CC(C)(C)NC(C)(C)C1)S(=O)(=O)CC12CCC(CC1=O)C2(C)C (stereo unspecified),104,91,84,-26
O=C(COC(=O)c1cc(=O)c2ccccc2o1)Nc1ccc(S(=O)(=O)N2CCCC2)cc1,nt,89,91,-3
O=C(Cn1cc(SCc2ccc(F)cc2)c2ccccc21)N1CCCCC1,109,134,97,nt
CN(C)/C=C(\C#N)C(=O)Nc1ccccc1,106,90,94,-41
O=C1C=CC(=O)N1C1CC1,nt,67,54,-27
CCCCc1nnc(NC(=O)CN2C(=O)c3ccccc3C2=O)s1,104,95,100,2
COc1cc(/C=C2\SC(=S)N(CCC(=O)Nc3ccccc3C(F)(F)F)C2=O)cc(OC)c1OC,103,nt,nt,-14
O=C(Cn1ccn(-c2ccc(F)c(F)c2)c(=O)c1=O)NCCc1ccccc1,103,79,91,-9
Cc1ccc(CNC(=O)c2ccc3c(c2)N(Cc2cccc(C)c2)C(=O)CS3)cc1,102,127,84,7
CCC(=O)N=c1sc2ccccc2n1CC(=O)OC,104,98,97,-6
COc1cc(-c2nc3ccccc3c(=O)n2NCc2cc(Br)ccc2O)cc(OC)c1OC,104,nt,nt,-18
Cc1cc(C)nc(N(C#N)CCOc2ccc(Cl)cc2)n1,103,106,100,-15
COc1ccc(NC(=O)NCCn2nnc3cc(S(=O)(=O)N4CCCC4)ccc32)cc1OC,107,nt,nt,28
CCOc1ccc(N/C=C(\C#N)c2nc3ccccc3[nH]2)cc1,105,129,106,-7
CC(=O)NC1(C(=O)NC2CCCC2)CCCCC1,93,111,88,nt
Cc1cccc(N2CCN(C(=O)CN3C(=O)CCSc4ccccc43)CC2C)c1 (stereo unspecified),102,94,85,nt
Cc1ccc(S(=O)(=O)N=S(c2ccccc2)c2ccccc2)cc1,99,113,103,4
Cc1cccc(N2CCN(S(=O)(=O)c3cc(Br)cc4c3N(C(=O)C3CC3)CC4)CC2C)c1 (stereo unspecified),98,97,92,7
Cc1cccc(C(=O)OCCN2C(=O)c3ccccc3C2=O)c1,nt,77,93,-63
O=C(COC(=O)c1ccccc1C(=O)c1ccccc1)NC1CCCCC1,nt,82,94,-2
O=C(Nc1ccc(N2CCCCC2)cc1)C1COc2ccccc2O1 (stereo unspecified),nt,91,86,-23

# Only Sa growth 42C second temp, for three of the compounds above:
SMILES | Sa growth 42C second temp
FC(F)(F)c1cccc2c1[nH]c1nc3ccccc3nc12 | 95
CN(C1CC(C)(C)NC(C)(C)C1)S(=O)(=O)CC12CCC(CC1=O)C2(C)C (stereo unspecified) | 84
O=C(COC(=O)c1cc(=O)c2ccccc2o1)Nc1ccc(S(=O)(=O)N2CCCC2)cc1 | 91

# (further entries)
SMILES,GIV-Gai inh,Sa growth 42C,Sa growth 42C second temp,HCMV NEC inh
CCn1ncc(C2=NOC(C(=O)N3CCC(C(N)=O)CC3)C2)c1C (stereo unspecified),106,102,92,nt
CCOC(=O)Cc1cc(=O)[nH]c(Nc2nc3ccccc3o2)n1,95,110,89,-9
Cn1nc(C(=O)N2CCN(c3ccc(Cl)cc3)CC2)c2c1-c1ccccc1S(=O)(=O)C2,101,117,74,-4
Cc1ccc2c(c1)sc1nc(C)c(S(=O)(=O)Nc3ccc(F)cc3C)c(=O)n12,107,nt,nt,-6
CC(C)c1nnc(N2C(=O)c3oc4ccccc4c(=O)c3C2c2cccnc2)s1 (stereo unspecified),100,nt,nt,-58
Cc1nnc(SCc2ccccc2F)n1C(C)C,106,108,96,-34
C=CCN1CC(c2nc3ccccc3n2C)CC1=O (stereo unspecified),106,nt,nt,-16
CCc1ccc(C(=O)NCc2nnc(SC)n2C)cc1,104,98,66,-1
Cc1ccsc1C1CC(=O)Nc2ccccc2S1 (stereo unspecified),105,111,90,-2
CCOc1ccc(NC(=O)Cn2cc(C(=O)c3ccc(CC)cc3)c(=O)c3cc(OC)c(OC)cc32)cc1,109,93,88,8
COc1ccc(-c2nc(C(=O)N3CCCC3)nn2-c2ccccc2)cc1,107,nt,nt,-3
OCCn1nnnc1-c1ccccc1,102,100,77,-32
COC(=O)C1CCN(c2csc3ccc(Cl)cc3c2=O)CC1,109,104,81,nt
CCN(CC)CCCNc1nnc(C)c(=O)[nH]1,104,107,104,-10
CN(C)CCNC(=O)c1cc2c(s1)-c1ccc(Cl)cc1SC2,102,134,84,nt
COCc1nc(-c2ccccn2)[nH]c(=O)c1CC1CC1,103,125,95,1
CCOc1ccc(CNC(=O)CSc2nc3ncccc3n3cccc23)cc1,112,nt,nt,-22
CCOc1ccc(NC(=O)C2CCCN(S(=O)(=O)c3cc(-c4noc(C)n4)sc3C)C2)cc1 (stereo unspecified),105,nt,nt,-8
CC1CCCCN1Cc1c(O)ccc2c(=O)c(-c3ccccc3Cl)c(C(F)(F)F)oc12 (stereo unspecified),108,108,93,-46
Cc1ccc(Cn2c(CNC(=O)Cc3ccccc3)nc3ccccc32)cc1,104,nt,nt,-7
CCOC(=O)C1=C(N)OC2=C(C(=O)CC(c3ccccc3)C2)C1c1ccc(Cl)cc1 (stereo unspecified),105,nt,nt,-15
CC1(C)Nc2ccccc2NC1=O,99,93,84,-13
COc1cccc(N2CC(=O)N(NC(=O)NC3CCCCC3)CC2=O)c1,103,94,85,-18
CCCn1c(=N)n(CC(O)c2ccccc2)c2ccccc21 (stereo unspecified),102,107,83,nt
CCN(CC)c1ccc2c(c1)CCCN2,53*,4.2*,0.8*,-16

# In a second layout: entries from further up
Compound	GIV-Gai inh	Sa growth 42C	Sa growth 42C second temp	HCMV NEC inh
COCc1nc(-c2ccccn2)[nH]c(=O)c1CC1CC1	103	125	95	1
COc1ccc(-c2nc(C(=O)N3CCCC3)nn2-c2ccccc2)cc1	107	nt	nt	-3
CC(C)c1nnc(N2C(=O)c3oc4ccccc4c(=O)c3C2c2cccnc2)s1 (stereo unspecified)	100	nt	nt	-58
OCCn1nnnc1-c1ccccc1	102	100	77	-32
CCc1ccc(C(=O)NCc2nnc(SC)n2C)cc1	104	98	66	-1

# (list continues)
SMILES,GIV-Gai inh,Sa growth 42C,Sa growth 42C second temp,HCMV NEC inh
Cc1cc(OCCON2C(=O)CCC2=O)c(C)cc1Cl,105,112,102,-6
CCOC(=O)c1sc(N2C(=O)c3oc4ccccc4c(=O)c3C2c2ccc(C(C)(C)C)cc2)nc1C (stereo unspecified),99,91,89,-10
OCCSc1n[nH]c2nc3ccccc3n12,109,nt,nt,-18
COc1ccc(S(=O)(=O)N(C)CC(=O)NCc2ccccc2)cc1OC,nt,99,91,-4
O=c1c2c(-c3cccs3)csc2nc(CN2CCOCC2)n1Cc1ncc(-c2ccccc2)o1,nt,80,100,-17
CN1CCN(c2ccc(Cl)cc2NC(=S)Nc2cccnc2)CC1,nt,122,76,-22
O=S(=O)(CC(O)COc1ccc(Br)cc1)c1ccccc1 (stereo unspecified),101,100,96,-27
CC(/C=C/c1ccccc1)=N\NC(N)=S,101,136,37,-42
COc1nc2ccccc2nc1CCC(=O)Nc1ccccc1,110,96,80,-47
C=CCN1Cc2ccc(C(=O)O)cc2C1,100,101,81,-22
Cc1ccc(CNCc2ccccc2)o1,nt,103,99,6
CC(C)Sc1ncc(Cl)c(C(=O)Nc2c(C(=O)Nc3ccccc3)oc3ccccc23)n1,96,94,84,-14
COc1ccc(N2C(=O)c3cc4ccsc4n3CC2(C)C(=O)NCc2ccccc2OC)c(OC)c1 (stereo unspecified),116,nt,nt,-13
c1ccc(-n2nnnc2Sc2nnc3n2CCCCC3)cc1,nt,111,98,5
O=S(=O)(NC(=S)Nc1ccc(Cl)c(Cl)c1)c1ccccc1,101,5,0,-36
CCOc1ccc(NC(=O)Cn2nc(SCC)c(S(=O)(=O)c3ccc(OC)cc3)c2N)cc1,100,nt,nt,-26
Cc1n[nH]c(C)c1CCc1nc(-c2ccc(Cl)cc2)no1,97,nt,nt,7
COc1ccc(-n2cc(C(=O)Nc3cccc4ncccc34)nn2)cc1,103,nt,nt,-6
Clc1nc2ccccc2cc1C=NCc1ccco1,nt,90,84,-71
O=C(NC1CC(=O)N(c2ccccc2)C1)c1ccc(S(=O)(=O)N2CCCC2)cc1 (stereo unspecified),106,109,98,nt
CCC(CC)NCc1ccc(OC)c(C)c1OC,102,75,82,-17
COc1ccc(C2=NN(C(=O)CCC(=O)O)C(c3ccccc3)C2)cc1 (stereo unspecified),99,nt,nt,-26
CSc1ccc(CNC(=O)CN2C(=O)C3CCCCN3c3ccc(C(=O)N4CCCC4)cc32)cc1 (stereo unspecified),108,108,87,nt
CC(=O)Nc1ccccc1OCc1cc(=O)n2c(C)csc2n1,106,114,79,-13
O=C(CSc1nccc(-c2cccs2)n1)Nc1ccccc1,104,109,84,-67
SMILES,GIV-Gai inh,Sa growth 42C,Sa growth 42C second temp,HCMV NEC inh
COc1cc(/C=C2\C(=O)NC(=O)N(c3ccc(Cl)cc3)C2=O)c([N+](=O)[O-])cc1OC,121,nt,nt,-57
O=C(c1ccc2c(c1)OCO2)N(c1ccccc1)C1C=CS(=O)(=O)C1 (stereo unspecified),119,93,76,-2
CCN1CCN(c2cc(C(=O)O)c3cc(NS(=O)(=O)c4ccc(C(C)C)cc4)ccc3n2)CC1,103,nt,nt,-30
Nc1cccc(-c2ncn[nH]2)c1,100,93,78,10
Cc1ccccc1NC(=O)CSc1nccc(=O)[nH]1,99,113,104,-7
COc1ccc(S(=O)(=O)CCc2nnc(-c3ccncc3)o2)cc1,96,93,79,-16
CCC1CN(C(=O)N2CCC(C(=O)NCCC3=CCCCC3)CC2)c2cc(C)ccc2O1 (stereo unspecified),104,105,94,-14
Cc1cccc(CSc2cn(CC(=O)N3CCCCCC3)c3ccccc23)c1,105,104,70,nt
O=C(OCC(=O)c1c[nH]c2ccccc12)c1ccc(N2CCCC2=O)cc1,nt,95,96,11
CC(=O)Nc1ccc(-n2cccc2)cc1,nt,92,96,-7
CC1=C(C(=O)NCCCN2CC(C)CC(C)C2)C2(CCCCC2)OC1=O (stereo unspecified),100,nt,nt,-19
CCOc1ccc(NC(=O)CCCc2nc(-c3cccc(OC)c3)no2)cc1,98,94,86,2
O=C(O)COCC1CCCCO1 (stereo unspecified),102,114,83,-9
COc1ccc(NC(=O)C(c2ccc(OC)cc2)N(C)C(=O)Cc2cccs2)cc1 (stereo unspecified),102,108,106,8
COc1cc(NC(=O)c2noc3c2CC(C)CC3)c(OC)cc1Cl (stereo unspecified),101,72,93,nt
COC(=O)c1cn(Cc2ccc(F)cc2Cl)c2nc(C)ccc2c1=O,105,nt,nt,-1
O=c1oc2ccccc2n1CCOc1cccc2ccccc12,nt,102,84,-6
COc1ccc(CCNC(=O)c2cc3c(=O)n(C)c4cc(Cl)ccc4c3s2)cc1OC,98,99,82,-12
O=C1COc2ccc(C(=O)COC(=O)c3ccc(S(=O)(=O)N4CCOCC4)cc3)cc2N1,nt,96,102,3
COc1ccc(S(=O)(=O)N2CCc3ccccc3C2)cc1,nt,121,83,-4
O=C1NC(c2ccccc2)(C(F)(F)F)SC2=CCCCCN12 (stereo unspecified),nt,78,87,-21
CCN(CCS(=O)(=O)c1ccc(C)cc1)C(=O)c1ccc(-c2cc(C(F)(F)F)nn2C)s1,102,90,98,-12
O=C1Nc2ccccc2/C1=C\c1ccc(Cl)cc1,96,65,67,-22
CSc1nnc(COc2ccc(Cl)cc2)n1C,103,91,100,7
COc1cc(OC)c(NC(=O)c2cc(-c3ccccn3)n[nH]2)cc1Cl,101,nt,nt,-11
SMILES,GIV-Gai inh,Sa growth 42C,Sa growth 42C second temp,HCMV NEC inh
COc1ccc(C)cc1-n1c(SCC(=O)NCc2ccco2)nc2c([nH]c3ccccc32)c1=O,100,79,88,nt
O=C(O)c1cc2cc(Cl)ccc2o1,96,94,93,-18
NC(=O)CN1C(=O)CCSc2ccccc21,102,90,93,nt
Cc1ccc(NC(=O)CC(c2ccc(F)cc2)N2Cc3ccccc3C2=O)cc1C (stereo unspecified),96,93,94,nt
CC(C)OC(=O)COc1ccc2c(c1)OC1(CC2c2ccccc2)CC(C)(C)NC(=O)N1 (stereo unspecified),nt,90,96,13
CN1/C(=C/C(=O)CC(N)=O)C(C)(C)c2ccccc21,nt,102,87,-24
O=C(c1ccccc1)n1nnc2ccccc21,102,83,103,6
CCNC(=O)c1ccc(CSc2nc3ccncc3n2Cc2ccc(F)cc2)cc1,108,103,84,0

# Profiles from above.
# O=C(c1ccccc1)n1nnc2ccccc21 in the list: GIV-Gai inh = 102; Sa growth 42C = 83; Sa growth 42C second temp = 103; HCMV NEC inh = 6
# COc1ccc(C)cc1-n1c(SCC(=O)NCc2ccco2)nc2c([nH]c3ccccc32)c1=O in the list: GIV-Gai inh = 100; Sa growth 42C = 79; Sa growth 42C second temp = 88; HCMV NEC inh = nt
